CBX7 inh: CBX7 inhibition, primary AlphaScreen; normalised signal (fraction of DMSO) (no concentration beside the values); AlphaScreen His6-CBX7 / biotin-H3K27me3 peptide binding; stronger effect = lower value; AID 1224903; actives 1.1% (n = 66,000); O95931; in the data active = normalised signal below about 0.5;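 also: 100 nL library stock added to about 20 µL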
Target sequence (O95931 whole entry, looked up): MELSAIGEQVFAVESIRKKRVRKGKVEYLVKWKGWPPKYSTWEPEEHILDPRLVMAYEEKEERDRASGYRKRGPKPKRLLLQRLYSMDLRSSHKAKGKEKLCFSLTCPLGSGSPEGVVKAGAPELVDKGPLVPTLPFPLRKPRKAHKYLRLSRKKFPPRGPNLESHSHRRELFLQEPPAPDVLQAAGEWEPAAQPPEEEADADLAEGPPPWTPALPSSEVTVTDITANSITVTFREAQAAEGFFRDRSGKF
CBX7 inh z-score: also measured in CBX7 inh; calls as there; z-score; measured here: z-score of CBX7 signal; some inactives read as strong as hits; reference of the scale not given here;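 same signal on another scale; lower means less binding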
An asterisk follows results filed as active. Only part of the results is shown (hit frequency here may not be typical).

Values run as follows: CBX7 inh z-score, CBX7 inh
1) CCCC1COC(Cn2cncn2)(c2ccc(C)cc2)O1 (configuration not stated)
→ -0.76, 0.97
2) O=C1CN(C(=O)CC2CCCCC2)C(c2ccccc2)c2cc(Br)ccc2N1 (configuration not stated)
→ 0.25, 1.1
3) Cc1cc2ncn(CC(O)COC3CCCCC3)c2cc1C (configuration not stated)
→ -18*, 0.044*
4) Oc1ccc(Nc2nc(-c3ccccc3Cl)nc3ccccc23)cc1
→ -6.1, 0.8
5) Cc1ccc2c(c1)c(Sc1ccccc1)c(CC(=O)O)n2C
→ 2, 1.1
6) O=C(NCc1ccccc1)c1ccc2c(c1)NC(=O)C(N1CCN(c3ccc(Cl)cc3)CC1)S2 (configuration not stated)
→ -0.42, 0.98
7) OC(C#CCN1CCCCC1)(c1ccccc1)C1CCCCC1 (configuration not stated)
→ 0.95, 1.1
8) CCCCNC(=O)C1CC(c2cccc(OC)c2)=NO1 (configuration not stated)
→ -0.29, 0.98
9) COc1ccc(-c2cn(-c3ccc(F)cc3)c(SCC(=O)Nc3ccc(C)cc3)n2)cc1OC
→ -3, 0.61
10) CN(C(=O)Cn1ncc2c1-c1ccccc1OC2)c1ccc(Br)cc1
→ -1.6, 0.94
11) Cc1cc(N2CCC(C(=O)NCCc3ccccc3)CC2)n2nc(C)c(-c3ccc(Cl)cc3)c2n1
→ 0.8, 1
12) O=C(Nc1cccs1)Nc1ccccc1Cl
→ 0.18, 1
13) O=C1N(c2ccccc2)C2CS(=O)(=O)CC2N1c1cccc(C(F)(F)F)c1 (configuration not stated)
→ 1.4, 1
14) COc1ccc(NC(=O)CCc2nc(-c3cccs3)no2)cc1Cl
→ 1.2, 1
15) Clc1ccc2nc3c(c(Nc4ccc5c(c4)OCO5)c2c1)CCC3
→ -0.05, 0.96

Laid out differently: 13 of the compounds above.
nr	compound	CBX7 inh z-score	CBX7 inh
3	Cc1cc2ncn(CC(O)COC3CCCCC3)c2cc1C (configuration not stated)	-18*	0.044*
4	Oc1ccc(Nc2nc(-c3ccccc3Cl)nc3ccccc23)cc1	-6.1	0.8
5	Cc1ccc2c(c1)c(Sc1ccccc1)c(CC(=O)O)n2C	2	1.1
6	O=C(NCc1ccccc1)c1ccc2c(c1)NC(=O)C(N1CCN(c3ccc(Cl)cc3)CC1)S2 (configuration not stated)	-0.42	0.98
7	OC(C#CCN1CCCCC1)(c1ccccc1)C1CCCCC1 (configuration not stated)	0.95	1.1
8	CCCCNC(=O)C1CC(c2cccc(OC)c2)=NO1 (configuration not stated)	-0.29	0.98
9	COc1ccc(-c2cn(-c3ccc(F)cc3)c(SCC(=O)Nc3ccc(C)cc3)n2)cc1OC	-3	0.61
10	CN(C(=O)Cn1ncc2c1-c1ccccc1OC2)c1ccc(Br)cc1	-1.6	0.94
11	Cc1cc(N2CCC(C(=O)NCCc3ccccc3)CC2)n2nc(C)c(-c3ccc(Cl)cc3)c2n1	0.8	1
12	O=C(Nc1cccs1)Nc1ccccc1Cl	0.18	1
13	O=C1N(c2ccccc2)C2CS(=O)(=O)CC2N1c1cccc(C(F)(F)F)c1 (configuration not stated)	1.4	1
14	COc1ccc(NC(=O)CCc2nc(-c3cccs3)no2)cc1Cl	1.2	1
15	Clc1ccc2nc3c(c(Nc4ccc5c(c4)OCO5)c2c1)CCC3	-0.05	0.96

Remaining list, next part:
Values run as follows: CBX7 inh z-score, CBX7 inh
16) COCCCNC(=O)Cn1cc2c(n1)CCCC2
→ -0.29, 0.99
17) CCCCOc1ccc(C(=O)Nc2nc3ccc(C)cc3s2)cc1
→ 0.19, 1
18) CCCCC(=O)N1CC(=O)Nc2ccc(Br)cc2C1c1ccccc1 (configuration not stated)
→ -2.3, 0.91
19) CCc1cccc(C)c1NC1c2ccccc2C(=O)N1c1ccccn1 (configuration not stated)
→ -0.36, 0.99
20) CCN(CCCNC(=O)c1cn(C2CCCCC2)c(=O)c2c1c1ccccc1n2C)Cc1ccccc1
→ -1.6, 0.94
21) COc1ccc(Nc2ncc(C(=O)Nc3cccc(OC)c3)c3ccccc23)cc1
→ -0.48, 0.98
22) Cc1ccc(Nc2nc(-c3ccccc3F)nc3ccccc23)cc1
→ 3.5, 1.3
23) Cc1oc(-c2cccc(Br)c2)nc1CN1CCC(C(=O)NCCCN2CCOCC2)CC1
→ -1.1, 0.95
24) O=C(CC1Sc2ccccc2NC1=O)Nc1ccccc1OC(F)F (configuration not stated)
→ 1.4, 1.2
25) CCn1c(SCC(=O)Nc2cccc(OC)c2)nnc1-c1c[nH]c2ccccc12
→ 0.69, 1.1
26) CCOc1ccc(N(CC)S(=O)(=O)c2ccc3c(c2)CCN3C(=O)C2CC2)cc1
→ 3.8, 1.1
27) O=C(NCc1ccc2c(c1)OCO2)c1cc(-c2ccc(Cl)s2)nc2ccccc12
→ 0.54, 1
28) CCOc1ccc(NCc2nc3ccccc3n2CCOc2ccccc2C)cc1
→ -15, 0.6
29) COc1ccc(Nc2cc(C(=O)NCCN(CC(C)C)CC(C)C)c3ccccc3n2)c(OC)c1
→ -3.5, 0.77
30) CCc1ccccc1NC(=O)C1CC(c2cccc(OC)c2OC)=NO1 (configuration not stated)
→ 1.3, 1

Values run as follows: CBX7 inh z-score, CBX7 inh
31) COC(=O)c1ccc(NC(=O)CCc2c(C)nc3cc(-c4ccccc4OC)nn3c2C)cc1
→ -0.19, 0.99
32) CCC(Oc1ccc(F)cc1)C(=O)Nc1c(C(=O)c2ccccc2)oc2ccccc12 (configuration not stated)
→ 1.4, 1.4
33) Cc1ccc(CN2C(=O)CSc3ccc(C(=O)NCc4cccnc4)cc32)cc1
→ 0.95, 1
34) CCn1c(/C=C/c2cccnc2)nc2ccccc2c1=O
→ 3.2, 1.1
35) Cc1cc(C)c(N2CC(c3nc4ccccc4n3C)CC2=O)c(C)c1 (configuration not stated)
→ 0.29, 1
36) O=C1CSC(c2ccc3c(c2)OCO3)N1c1ccc(Br)cc1 (configuration not stated)
→ -0.76, 0.93
37) Cc1cc(Nc2ccc(Cl)cc2)nc(N2CCOCC2)n1
→ -0.22, 0.94
38) Cc1ccc(-c2nc(N3CCN(c4ccccc4C)CC3)nc3ccccc23)cc1
→ 2.8, 1.7
39) Cc1cc(C)c2oc(-c3cccc(NC(=O)c4ccc(F)cc4)c3)nc2c1
→ -1.5, 0.96
40) CCOC(=O)N1CCC(Nc2c(NCCN(C)Cc3ccccc3)c(=O)c2=O)CC1
→ -2.4, 0.8
41) Cc1ccc(NS(=O)(=O)c2ccc3c(c2)CCN3C(=O)C2CCC2)cc1C
→ -3.1, 0.91
42) O=C(O)c1ccc2c(c1)N=C(N1CCOCC1)c1ccccc1S2
→ -0.63, 0.98
43) CCN1CCCC1CNC(=O)c1cn(CC(C)C)c(=O)c2c1c1ccccc1n2C (configuration not stated)
→ -0.67, 0.96
44) COc1ccc(CNC(=O)c2cnn(-c3ccccc3)c2C2CCN(C(=O)OC(C)(C)C)CC2)cc1
→ -1.6, 0.96
45) CCN1C(=O)CSc2ccc(C(=O)NC3CCCCCCC3)cc21
→ 0.93, 1

Values run as follows: CBX7 inh z-score, CBX7 inh
46) O=C(Nc1nnc(CCc2ccccc2)s1)c1cccc([N+](=O)[O-])c1
→ -0.61, 0.97
47) Cc1nc2c(C(=O)N3CCCC3)c[nH]n2c(=O)c1Cc1ccc(F)cc1Cl
→ -0.24, 0.99
48) COc1cc2c(C(=O)N(C)Cc3ccccc3)cn(CC(C)C)c(=O)c2cc1OC
→ 1.2, 1.1
49) COc1cccc(C2CC(c3cccc(Br)c3)Nc3ncnn32)c1 (configuration not stated)
→ -0.4, 0.99
50) O=S(=O)(c1ccc(Cl)cc1)c1nc(-c2ccccc2F)oc1NCc1ccccc1
→ -1.7, 0.82
51) Cc1c(Cl)cccc1Nc1cc(C)c2c(O)cccc2n1
→ -0.79, 0.96
52) COc1ccc(NC(=O)c2cccc3c2C(=O)N(Cc2ccccn2)C3)cc1Cl
→ 0.23, 1
53) O=S(=O)(NCC(NCc1ccccc1)c1ccccc1)c1ccc(Cl)cc1 (configuration not stated)
→ -0.48, 0.92
54) O=C(c1ccc2c(c1)N(Cc1ccccc1)C(=O)CS2)N1CCOCC1
→ 0.49, 1.1
55) CC1CCN(C(=O)c2cc(-c3ccc(Cl)c(Cl)c3)on2)CC1
→ 0.78, 1.1
56) COc1ccc(-c2nnc(NC(=O)c3ccc(S(=O)(=O)N4CCOCC4)cc3)o2)c(OC)c1
→ -9.4, 0.58
57) O=C(Cn1cnc2c(nnn2Cc2ccccc2F)c1=O)NCc1ccccc1Cl
→ 0.73, 1
58) COc1ccc(-c2nc3ccccc3o2)cc1NC(=O)c1cc(Cl)ccc1OC
→ 1.4, 1.1
59) O=C(Nc1cccc(-c2nc3ccccc3s2)c1)C(c1ccccc1)c1ccccc1
→ 0.31, 1
60) CCOC(=O)c1c(NC(=O)c2cccc(OC)c2)sc2c1CCC(CC)C2 (configuration not stated)
→ 8.2, 1.6

Values run as follows: CBX7 inh z-score, CBX7 inh
61) Cn1c(=O)c(=O)n(C)c2cc(S(=O)(=O)NCc3ccccc3Cl)ccc21
→ -3.6, 0.77
62) Cc1cccc(-n2ccnc2SCC(=O)Nc2cccc(C)c2C)c1
→ -0.15, 0.85
63) COCCNC(=O)c1c[nH]c2ccc(S(=O)(=O)Nc3ccc4c(c3)OCCO4)cc2c1=O
→ -1.9, 0.9
64) O=C(NCC1CC2CCC1C2)C(=O)c1c(-c2ccccc2)[nH]c2ccccc12 (configuration not stated)
→ -2.9, 0.82
65) N#Cc1nc(-c2ccccc2F)oc1NCC1CCCO1 (configuration not stated)
→ 1.1, 1.1
66) COc1ccc(-c2csc(NC(=O)CN3C(=O)CCC3=O)n2)c(OC)c1
→ -0.74, 0.96
67) O=C(NCc1ccccc1)C1CCCN(S(=O)(=O)c2cccnc2)C1 (configuration not stated)
→ 0.062, 1.1
68) O=C(Nc1c(-c2ccc(F)cc2)nc2ccccn12)c1cccc(C(F)(F)F)c1
→ 0.53, 1.1
69) COc1ccc(C2C(=O)N(C3CCCCC3)CC(=O)N2Cc2ccc3c(c2)OCO3)cc1OC (configuration not stated)
→ -0.088, 0.96
70) CCN(CC)S(=O)(=O)c1ccc2c(c1)N(CC(=O)Nc1ccc(F)cc1)C(=O)CO2
→ 0.95, 1
71) Cc1cccnc1NC(=O)C1CC=CCC1C(=O)O (configuration not stated)
→ 0.36, 1
72) COc1ccc(-c2noc(-c3ccc(Cl)c(Cl)c3)n2)cc1OC
→ -0.032, 1
73) CCCCNS(=O)(=O)c1ccc2nc(-c3cccnc3)cc(C(=O)NCCCOCC)c2c1
→ -0.16, 0.99
74) O=C(CCc1nc(-c2cccs2)no1)Nc1ccc(Oc2ccccc2)cc1
→ -0.028, 0.97
75) CN(Cc1ccccc1)C(=O)Cn1nc(Cc2ccncc2)c2ccccc2c1=O
→ 0.26, 1

Values run as follows: CBX7 inh z-score, CBX7 inh
76) Clc1cccc(-n2cc(-c3ccccc3)c3c(NCc4ccccn4)ncnc32)c1
→ -1, 0.96
77) CC(=O)N1CCc2cc(S(=O)(=O)NC(CC(C)C)C(=O)Nc3ccc(F)cc3F)ccc21 (configuration not stated)
→ -1.7, 0.89
78) Cc1ccc(NC(=O)c2sc3ncn(CC(=O)N4CCCC(C)C4)c(=O)c3c2C)cc1Cl (configuration not stated)
→ 1.2, 1.1
79) O=C(c1cccc(Cl)c1)N1CCN(c2ccc3nnc(-c4ccccc4)n3n2)CC1
→ 0.25, 1
80) Cc1ccccc1C1(c2ccccc2C)CC1C(=O)Nc1ccccc1 (configuration not stated)
→ -0.58, 0.95
81) Cc1cccc(C(=O)Nc2c(-c3ccccc3)nc3ccccn23)c1
→ -1.7, 0.94
82) COc1ccc(NC(=O)CN2C(=O)CC(c3ccccc3)Sc3ccccc32)c(OC)c1 (configuration not stated)
→ -2.1, 0.88
83) CCC(C)NC(=O)CN1CCN(Cc2ccc(C)cc2)C1=O (configuration not stated)
→ 1.3, 1.1
84) COc1cccc(CNC(=O)CCN2C(=O)COc3ccccc32)c1
→ 1.1, 1
85) COc1ccc(OCCCn2c(C3CC(=O)N(c4cccc(C)c4C)C3)nc3ccccc32)cc1 (configuration not stated)
→ -2.4, 0.61
86) O=C(CCCC1=NS(=O)(=O)c2ccccc2N1)Nc1ccc(Oc2ccccc2)cc1
→ -2.1, 0.9
87) c1ccc(-c2nc3ccccn3c2Nc2ccc3c(c2)OCCO3)cc1
→ 3, 1.3
88) O=S(=O)(c1ccc(F)cc1)c1nc(-c2ccccc2)oc1SCc1ccc(F)cc1
→ -0.035, 1
89) O=C(Nc1ccc(Oc2ccccc2)cc1)c1cc2c(s1)-c1ccccc1OC2
→ 11, 1.4
90) COc1ccc2nc(N3CCC(C(=O)N4CCCC4)CC3)sc2c1
→ 1.8, 1.2

Values run as follows: CBX7 inh z-score, CBX7 inh
91) COc1ccc(OCc2nc(-c3ccccc3C)no2)cc1
→ 2.3, 1.2
92) O=C(Nc1nc(-c2ccccc2)cs1)C1COc2ccccc2O1 (configuration not stated)
→ 1.3, 1.1
93) Cc1c(NC(=O)c2ccc3ccccc3c2)cccc1-c1nc2ccccc2[nH]1
→ 2.1, 1.1
94) O=C(NCCCN1CCCCC1)c1ccc2c(c1)N(Cc1c(F)cccc1Cl)C(=O)CS2
→ 1.9, 1
95) O=C(CCc1nc(-c2ccccc2F)no1)N1CCN(c2cccc(Cl)c2)CC1
→ 1.2, 1
96) CCOC(=O)c1cnc2c(OC)cccc2c1Nc1ccc(Oc2ccccc2)cc1
→ -8, 0.54
97) Cc1ccc2nc(NC(=O)c3cc4ccccc4o3)sc2c1
→ -2.4, 0.83
98) COc1ccccc1CNS(=O)(=O)c1ccc2c(c1)CCN2C(=O)CCC(=O)O
→ -1.4, 0.91
99) CC1CC(C)CN(CCCNC(=O)c2cnc(N3CCN(c4ncccn4)CC3)c3ccccc23)C1 (configuration not stated)
→ 0.48, 1.1
100) Cc1noc(C)c1S(=O)(=O)N1CCCC(C(=O)NCC2CCCO2)C1 (configuration not stated)
→ 3, 1.2
101) COc1ccc(CN=C2NS(=O)(=O)C(c3ccc(C)cc3)=C2C)cc1
→ -1.9, 0.93
102) COC(=O)c1[nH]nc2c1C(=O)N(c1ccc(F)cc1)C2=O
→ 2, 1

Screening results (PubChem BioAssay)
